miR-21 reporter – qHTS Assay for Modulators of miRNAs and/orActivators of miR-21. HeLa miR-21 FLuc reporter, luciferase, 48 h. Potency, µM (series often up to 38.3 µM), without a hit: top-dose reporter change, positive = more light. 340,000 tested, under 10 active; active = well fitted rising curve with a large enough effect; inconclusive = small, poorly fitted or top-dose-only effect; inactive = no such curve, though single readings can be large or run the other way;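 also: % of control where 0% means no effect; miR-21 action dims this reporter so a rising signal means less miR-21 action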
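Using DMEM plus 10% FBS, HeLa miR-21-FLuc cells are incubated with test compounds (final up to about 40uM) for 48 hours; firefly luciferase signal is then imaged following reagent-mediated lysis.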
Rango dissoc inh – qHTS Assay for Inhibitors of RanGTP induced Rango (Ran-regulated importin-beta cargo) - Importin beta complex dissociation | Biochemical FRET Rango-importin beta, RanGTP-induced dissociation | AID 540253, 2011 | Potency, µM (titrated, usually from 46.1 µM), for inactives: at the highest dose activity change, negative = inhibition | hit rate 0.071% among 340,000 | Snurportin-1 (Homo sapiens) + GTP-binding nuclear protein Ran (Homo sapiens) + Importin …; active means falling FRET ratio curve, often poorly fitted, with flat reads before Ran was added; inconclusive means other falling curves, or compound fluorescence or quenching; inactive means flat or rising ratio curve;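 also: potency is read from the fitted curve at half-maximal effect; % of control where 0% means no effect; nearly all actives have a fitted effect of over 45% in size; -100% = wells without RanGTP and RCC1; the record marks most hits as doubtful in a second field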
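Rango/importin beta premix (0.1/0.25 uM final), PBS + 1 mM DTT + 0.02% Tween-20 + 0.1% BSA; cpd 5 min RT; FRET pre-read; + RanGTP-RCC1 (0.6 uM Ran, 2 mM GTP, 0.2 uM RCC1); 45 min RT; FRET post-read, ex 430, em 486/530 nm.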
Rango-impB inh – qHTS Assay for Inhibitors of Rango (Ran-regulated importin-beta cargo) - Importin beta complex formation. hit rate 0.031% among 340,000. Potency, µM (series often up to 92.2 µM), for inactives: top-dose inhibition of complex formation. Rango CFP/YFP FRET sensor + importin beta, 45 min; active = rising FRET ratio curve, often small or poorly fitted; inconclusive = mostly compound fluorescence or quenching in the first reads; inactive = flat curves in all reads;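 also: potency is read from the fitted curve at half-maximal effect; 0% = DMSO wells and 100% = buffer wells lacking importin beta; nearly all actives have a fitted effect of over 15% in size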
Target sequence (Q14974 whole entry, looked up): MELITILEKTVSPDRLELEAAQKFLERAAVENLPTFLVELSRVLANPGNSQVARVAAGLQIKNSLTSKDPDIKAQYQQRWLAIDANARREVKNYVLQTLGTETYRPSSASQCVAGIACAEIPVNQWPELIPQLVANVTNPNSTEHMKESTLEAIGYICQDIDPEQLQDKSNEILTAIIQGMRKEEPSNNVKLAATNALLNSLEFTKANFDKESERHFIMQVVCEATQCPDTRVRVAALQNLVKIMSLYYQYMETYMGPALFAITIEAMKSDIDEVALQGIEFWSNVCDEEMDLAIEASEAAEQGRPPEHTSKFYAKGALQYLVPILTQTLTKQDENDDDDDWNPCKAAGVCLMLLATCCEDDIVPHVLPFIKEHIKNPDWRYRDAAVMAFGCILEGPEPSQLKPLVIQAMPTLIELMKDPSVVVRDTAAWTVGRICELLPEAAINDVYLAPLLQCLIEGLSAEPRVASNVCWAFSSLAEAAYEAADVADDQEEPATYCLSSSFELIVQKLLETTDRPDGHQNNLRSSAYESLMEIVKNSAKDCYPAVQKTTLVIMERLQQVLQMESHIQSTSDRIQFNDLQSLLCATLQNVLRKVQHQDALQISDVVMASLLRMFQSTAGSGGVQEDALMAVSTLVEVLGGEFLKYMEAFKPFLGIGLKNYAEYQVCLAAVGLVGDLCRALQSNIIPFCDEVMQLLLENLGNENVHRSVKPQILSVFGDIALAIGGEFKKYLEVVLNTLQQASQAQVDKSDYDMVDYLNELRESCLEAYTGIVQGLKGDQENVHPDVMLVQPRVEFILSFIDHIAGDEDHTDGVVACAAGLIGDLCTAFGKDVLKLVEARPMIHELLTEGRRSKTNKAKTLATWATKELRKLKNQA
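FRET biosensor Rango (snurportin 1 IBB between N-terminal EYFP and C-terminal Cerulean), 50 nM in PBS/1 mM DTT/0.02% Tween-20/0.1% BSA, preincubated 5 min RT with compound; 0.125 microM importin beta added, 45 min RT, CFP/YFP FRET ratio read.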
GLA inh pH 4.5 – qHTS Assay for Inhibitors of Human alpha-Galactosidase at pH 4.5; purified enzyme, 4-MU-alpha-Gal fluorescence, pH 4.5; 230,000 tested, under 10 active; activity change, negative = inhibition, % at 105 µM; Alpha-galactosidase A (Homo sapiens), P06280; inconclusive = small, poorly fitted or top-dose-only inhibition, or a rising curve; inactive = flat fitted curve, though single readings scatter; no compound was filed as active;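 also: 0% = full activity with enzyme and -100% = basal without enzyme; dose as in the result columns while the protocol names 77 µM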
* marks the source's active call; other numbers are inactive results; ? = inconclusive; · = no result given; & = joins results of further samples.

SMILES | miR-21 reporter | Rango dissoc inh | Rango-impB inh | GLA inh pH 4.5
CCCN1CN(Cc2ccco2)c2nc3ccccc3n2C1 | -20% | 15% | 1.8% | -2
CCOC(=O)c1ccccc1N1C(=O)CSC1=S | -1% | 25% | ? | -7
Cc1cc(NC(=O)CSCC(=O)N(c2ccc(F)cc2)C(C(=O)NC2CCCCC2)c2ccc(O)c(O)c2)no1 (stereo not given) | -2% | -21% | 0.3% | 1
COc1ccc(CCC(=O)NCCS(=O)(=O)N2CCN(c3ccc(F)cc3)CC2)cc1 | · | -17% | 3.1% | ·
O=C(COC(=O)c1ccc([N+](=O)[O-])cc1Cl)NCc1ccco1 | · | -4% | -2.4% | ·
O=C(CSc1nnnn1-c1cccnc1)Nc1cccc(Cl)c1 | -2% | -14% | 3.3% | ·
COC(=O)c1ccc(N2CCS(=O)(=O)CC2)cc1 | -3% | 8% | 0.1% | -2
CC1CC(=O)c2cnc(Nc3cccc(C(F)(F)F)c3)nc2C1 (stereo not given) | -20% | 22% | 0.3% | -8
COc1ccc(C(=O)NNC2=CC(=O)CC(C)(C)C2)cc1 | -11% | -13% | -3.0% | -3
COc1cccc2sc(=NC(=O)CS(=O)(=O)c3ccc(Cl)cc3)n(C)c12 | · | -1% | -0.4% | ·
Cc1ccc(S(=O)(=O)NCC(=O)OCc2csc(CC(=O)Nc3ccccc3C)n2)cc1C | · | ? | -1.2% | ·
O=C(Nc1cccc(Cl)c1)Nc1nnc(-c2ccncc2)s1 | ? | -3% | -2.5% | 9
Cc1ccc(NC(=O)c2cc(C(=O)Nc3ccc(C)cc3)n(C)n2)cc1 | · | 4% | 2.1% | ·
CC(=O)Nc1ccc(/C(C)=N/NC(=O)c2ccc(F)cc2)cc1 | -34% | 0% | 2.2% | -3
Fc1cc2nc(-c3ccncc3)[nH]c2cc1F | -65% | 1% | -5.7% | 5
COc1ccc(N(CC(=O)Nc2ccc(C)cc2C)S(=O)(=O)c2ccccc2[N+](=O)[O-])c(OC)c1 | 1% | 7% | 2.3% | -26
COc1ccc(NC(=O)Cn2nnc(-c3ccccc3NS(=O)(=O)c3ccc(OC)cc3)n2)cc1 | 26% | -3% | 2.4% | -2
Cc1ccccc1NC(=O)c1sc2nc3c(c(-c4ccco4)c2c1N)CCCC3 | -6% | ? | ? | 6
O=C(O)/C(=C\c1ccc2ccccc2c1)c1cccc2ccccc12 | · | 2% | 1.5% | ·
Cc1[nH][nH]c(=O)c1C(c1c(C)[nH][nH]c1=O)c1cn(Cc2ccc(F)cc2)c2ccccc12 | ? | 20% | 1.6% | -5

Single records, as listed above:
Listed for CC(=O)Nc1ccc(/C(C)=N/NC(=O)c2ccc(F)cc2)cc1 : miR-21 reporter = -34%; Rango dissoc inh = 0%; Rango-impB inh = 2.2%; GLA inh pH 4.5 = -3
Listed for Cc1ccc(S(=O)(=O)NCC(=O)OCc2csc(CC(=O)Nc3ccccc3C)n2)cc1C : miR-21 reporter = ·; Rango dissoc inh = ?; Rango-impB inh = -1.2%; GLA inh pH 4.5 = ·

The results go on.
SMILES | miR-21 reporter | Rango dissoc inh | Rango-impB inh | GLA inh pH 4.5
O=c1ccnc(SCCC(F)=C(F)F)[nH]1 | 0% | -15% | -0.2% | 6
Cc1ccc(C(=O)Oc2coc(CSc3nnc(NC(=O)C4CC4)s3)cc2=O)cc1C | -17% | -10% | 0.0% | 5
O=C(NNC(=O)c1cc2ccccc2cc1O)Nc1ccc(Br)cc1 | -9% | -3% | -0.1% | ·
CCCCC(=O)Nc1ccc2c(c1)nc(CN1CCN(C(=O)OCC)CC1)n2C | -6% | -9% | 0.2% | ·
O=[N+]([O-])c1cc(Cl)ccc1NCCNS(=O)(=O)c1ccccc1 | -33% | -6% | 3.2% | -3
CCc1cc(=O)oc2cc(C)c3c(C)coc3c12 | -3% | -17% | 3.1% | -3
O=C(COc1ccccc1F)Nc1nc(-c2ccccn2)cs1 | · | 12% | -0.2% | ·
CC(C)Cn1c(=S)[nH]c2cc(C(=O)NCc3ccccc3F)ccc2c1=O | · | -9% | -2.1% | ·
O=C(NCc1ccccc1)c1ccc(NC(=O)C2CCCCC2)cc1 | · | 1% | 3.9% | ·
COc1ccc(CNC(=O)C/C(C)=N/NC(=O)Cc2ccc(OC)cc2)cc1 | -8% | 9% | -6.7% | 3
Cn1c(CNC(=O)CCNC(=O)c2cccc(F)c2)cc(=O)n(C)c1=O | 4% | 6% | 1.1% | ·
CC(=O)Nc1ccc(OC(=O)c2ccco2)cc1 | -12% | 1% | 4.5% | 4
O=C(COC(=O)c1cnc(Cl)c(Cl)c1)NC1CCCCCC1 | · | -8% | -0.3% | ·
Cc1cc2cc(CNC(=O)c3ccco3)ccc2n1C | -1% | ? | ? | 3
Cc1cnc(NC(=O)c2c(Cl)cnn2C)s1 | -8% | 11% | 1.0% | ·
Cn1c(CNC(=O)Nc2ccccc2)nnc1SCc1ccccc1 | -17% | -14% | -1.4% | -23
COC(=O)c1ccc(OC)c(CSc2nnc(COc3cccc(C)c3)o2)c1 | -13% | 28% | 1.3% | -4
COC(=O)c1ccc(-n2nnnc2SCC(=O)NCc2cccc(C(=O)O)c2)cc1 | 0% | -9% | 0.7% | 2
C/C(=N/NC(=O)c1ccc(C)s1)c1cccc(NC(=O)COc2ccc(Cl)cc2C)c1 | -17% | 0% | -1.9% | 0
Cc1csc2nc(CNC(=O)C3CC=CCC3C(=O)O)cn12 (stereo not given) | -7% | 2% | 0.7% | -13
COc1ccc(-c2nnc(N)s2)cc1OC | · | 3% | -0.2% | ·
CNC(=O)c1cc2ccc(OC)cc2oc1=O | -26% | -20% | -1.9% | ?
O=C1/C(=C/c2ccco2)SC(=S)N1c1cccnc1 | -1% | -23% | -5.6% | 1
Cc1ccc(S(=O)(=O)N2CC(=NO)C2)cc1 | -1% | 14% | -0.8% | 7
Cc1ccc2c(c1)[C@H]1[C@H](CO2)[C@H](c2ccccc2)[C@]2(C)C(=O)N(Cc3ccco3)CC(=O)N12 | · | -8% | -4.6% | ·
Cn1c(CSCc2ccc(F)cc2)nnc1SCC(=O)Nc1nccs1 | 14% | 11% | 0.1% | -7
CSCC(=O)N1CCCC(N2CCN(c3ccc(F)cc3)CC2)C1 (stereo not given) | -8% | -14% | 6.7% | ·
Cc1cccc(C)c1NC1=NCCCCC1 | 1% | -9% | 0.2% | 3
O=C(CN1CCCC1)NN=C(c1ccccc1)c1ccccc1 | -4% | 20% | 0.2% | 12
CC1=C/C(=N\NC(=S)Nc2cccnc2)CC(C)(C)C1 | 19% | -6% | 1.4% | -1
Cc1ccc(NC(=O)COc2ncnc3c(Cl)cc(Cl)cc23)cc1[N+](=O)[O-] | -10% | 1% | -1.7% | 5
Nc1nc(N)nc(-c2cc(F)ccc2O)n1 | · | 5% | -2.0% | ·
CC1=NN(C(N)=S)C(=O)C1N=Nc1ccc(Cl)cc1Cl (stereo not given) | -39% | 4% | -0.5% | ·
CC(C)(C)NC(=O)CSc1nnc(-c2c[nH]c3ccccc23)o1 | -42% | 8% | -0.4% | ·
NC(=O)CCS(=O)(=O)c1ccc(Cl)cc1 | -1% | 2% | 1.7% | -1
COc1ccc(C(=O)Nc2cccc(OC)c2)cc1 | -33% | -17% | -0.3% | -8
Cc1cccc(C)c1NC(=O)c1cc(S(=O)(=O)N2CCc3ccccc32)cn1C | -2% | 2% | -0.2% | ·
Cc1cc(=O)n2c(-c3ccccc3C)n[nH]c2n1 | -17% | 1% | -0.2% | -5
CC1(C)CCC(C)(C)NC(=S)N1 | -1% | 3% | -2.7% | 3
N/C(Cc1ccc([N+](=O)[O-])cc1)=N\OC(=O)C(c1ccccc1)c1ccccc1 | 5% | -7% | -1.6% | 1
CCOc1ccc(-n2c(N)c(C(=O)NCc3cccnc3)sc2=S)cc1 | 1% | -2% | 3.0% | -11
O=C(Nc1ccc2oc(-c3ccc(Cl)c(Cl)c3)nc2c1)c1ncn[nH]1 | -55% | -3% | 4.4% | 4
COc1ccc(N2C(S)=C(C#N)C(=O)NC2c2ccco2)cc1 (stereo not given) | -2% | 2% | 10% | 8
O=C(O)CCCCc1nc2ccccc2s1 | 7% | -15% | 0.7% | 1
O=C(Nc1ccc(NC(=O)c2ccccc2Cl)cc1)c1cccnc1 | 0% | -9% | -1.0% | ·
CC(=O)Nc1ccc(NC(=O)c2ccc(-c3ccccc3Cl)o2)cc1 | · | -16% | -3.5% | ·
O=S1(=O)CCN(C(CCO)c2cccc(C(F)(F)F)c2)CC1 (stereo not given) | -3% | -6% | 0.7% | 7
COc1ccc(C(CC(=O)Nc2ccc(Cl)cc2F)NC(=O)C(F)(F)F)cc1 (stereo not given) | -1% | -11% | ? | 2
O=C(NCC1CCCO1)c1ccc(Cl)c(S(=O)(=O)Nc2ccccc2)c1 (stereo not given) | 1% | -10% | 4.4% | ·
c1cc(CNCCCN2CCOCC2)ccn1 | -3% | 6% | -1.7% | -15
(list continues)
SMILES | miR-21 reporter | Rango dissoc inh | Rango-impB inh | GLA inh pH 4.5
CC1CCC(NS(=O)(=O)c2cccc3nsnc23)CC1 (stereo not given) | -7% | 6% | -1.2% | ·
O=C1CCC(C(=O)N2CCCCCC2)CN1CCc1ccc(Cl)cc1 (stereo not given) | -3% | -4% | -0.3% | ·
C=CCN(C(=O)CNC(=O)c1cccs1)C(C(=O)NC(C)(C)C)c1ccccc1 (stereo not given) | -1% | 7% | -0.5% | 3
CCC1(CC)Cc2ccccc2-c2nc(CN(C)C)[nH]c(=O)c21 | -4% | -6% | 1.0% | ·
Cc1ccc(C(=O)C(C)Oc2cccc(NC(=O)c3ccco3)c2)cc1 (stereo not given) | -7% | 6% | -1.8% | -2
C[C@@H]1ON(C2CCCCC2)[C@H]2c3nc4ccccc4n3C[C@@H]12 | 0% | 1% | 2.6% | ·
O=C(CS(=O)(=O)c1ccccc1)N1CCCCC1 | -10% | 0% | 1.8% | ·
COC(=O)/C=c1\sc2ncnn2c1=O | -4% | 3% | -1.8% | 0
COc1cccc(NC(=O)Nc2nnc(Cc3ccc(F)cc3)s2)c1 | 2% | 4% | 2.3% | ·
CC1CCCN(CC(=O)Nc2cc(Cl)ccc2Oc2ccccc2)C1 (stereo not given) | -1% | 1% | 2.4% | ·
C/C(=N\Nc1ccccn1)c1ccc2c(c1)OCO2 | -41% | 10% | -3.4% | 0
Cn1nc(C(=O)Nc2nc(-c3ccc(F)cc3)cs2)ccc1=O | -1% | -1% | 1.8% | -7
COc1ccccc1NS(=O)(=O)c1ccc(O)c(C(=O)OCC(=O)c2ccc(Cl)cc2Cl)c1 | 1% | 8% | -0.9% | -2
CCN(C(=O)c1ccc(C(C)(C)C)cc1)c1nnc(Cn2nnc3ccccc32)s1 | 27% | -18% | -6.6% | -7
O=C(O)c1ccc(/C=C2\SC(=Nc3ccccc3)N(c3ccccc3)C2=O)cc1 | 0% | -5% | -1.8% | -8
COc1ccc(S(=O)(=O)N2CCC(n3cnc4ccccc43)CC2)cc1 | 12% | 3% | -2.4% | ·
O=c1nc2ccccc2c2n1CC(CN1CCN(c3ccccc3F)CC1)N2 (stereo not given) | -3% | 7% | 1.5% | -1
O=C1COc2ccc(C(=O)COC(=O)CNC(=O)c3ccco3)cc2N1 | -1% | -5% | 1.5% | -2
CCOC(=O)c1ccc(NC(=O)Cn2cnc(S(=O)(=O)N3CCCC3)c2)cc1 | 4%&0% | 26% | -0.2% | ·
CN1CCN(S(=O)(=O)c2cccc(C(=O)NCCC3=CCCCC3)c2)CC1 | · | 3% | 1.0% | ·
COCc1cc(C)nc(N2CCN(Cc3ccccc3)CC2)c1C#N | -7% | ? | -1.2% | -2

Some of the entries so far, with values under each structure.
Under each structure: miR-21 reporter, Rango dissoc inh, Rango-impB inh, GLA inh pH 4.5
> CN1CCN(S(=O)(=O)c2cccc(C(=O)NCCC3=CCCCC3)c2)CC1
    ·, 3%, 1.0%, ·
> O=C1COc2ccc(C(=O)COC(=O)CNC(=O)c3ccco3)cc2N1
    -1%, -5%, 1.5%, -2

Assay outcomes (PubChem)

Not all compounds are listed; count on the stated rates, not on these rows.
